# Compound activity: PubChem, National Center for Advancing Translational Sciences (NCATS)
# MARV entry inh: Marburg virus entry inhibition. Potency, µM (titrated, usually from 37.8 µM), for inactives: at the highest dose activity change, negative = inhibition, hits mostly inhibitors. Marburg virus pseudotyped entry inhibition, cell reporter; control for the full effect not named in the record; about a third of the inactives were read at about 46 µM. 300,000 compounds, 1.8% hits; active = well fitted inhibition curve with a large enough effect; inconclusive = small, poorly fitted or top-dose-only effect, or effect the other way; inactive = flat fitted curve, though single readings scatter; tested in HEK293 cells; about a fifth of its hits are not listed in these tables; also: luciferase read-out
# RE007 growth inh: less growth of the S. pombe RE007 Vpr strain; 360,000 compounds, 0.21% hits; S. pombe RE007 Vpr strain, BacTiter-Glo ATP luminescence, 24 h; control for the full effect not named in the record; Potency, µM (series often up to 92.2 µM), for the others: at the top dose activity change, negative = less growth; active = well fitted falling curve with a large enough effect; inconclusive = small, poorly fitted or top-dose-only effect; inactive = no such curve, though single readings can be large or run the other way;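 also: nearly all actives have a fitted effect of over 50% in size; the assay follows cell death caused by Vpr and the record does not say whether a fall means rescue or toxicity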
#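 Fission yeast strain RE007, carrying one chromosomally integrated HIV-1 vpr copy, was seeded at OD 0.01 in PMG+AL medium with 23 nL pinned compound. After 24 h at 30 °C and 99% humidity, viability was read by BacTiter-Glo luminescence.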
# 2A StopGo: FMDV 2A StopGo reporter, luciferase signal. 410,000 compounds, 1.2% hits. Potency, µM (top dose mostly 57.9 µM), for inactives: at the highest dose signal change, negative = less light. human cells with a luciferase reporter of 2A StopGo recoding; control for the full effect not named in the record; active = well fitted falling curve with a large enough effect; inconclusive = small, poorly fitted or top-dose-only effect; inactive = no such curve, though single readings can be large or run the other way; tested in HEK293T cells; also: nearly all actives have a fitted effect of over 45% in size; luciferase light after 4 h
# Starred values were filed as active, the others as inactive; ? = inconclusive; & = joins results of further samples; [ ] = another dose, or the depositor's remark. % is scaled to controls: 0 for no effect and ±100 for the full control effect; potency is read from the fitted curve at half-maximal effect.
SMILES,MARV entry inh,RE007 growth inh,2A StopGo
COc1cc2nc(N3CCN(C(=O)OCc4ccccc4)[C@H](C(=O)NC(C)(C)C)C3)nc(N)c2cc1OC,?,-3.7%,-14.9%
Cc1ccc([C@H]2C[C@@H](n3cc(C4CC4)nn3)[C@H](O)CN2CC2CCCCC2)cc1,?,-7.5%,-20.1%
CC(C)(C)OC(=O)N1CCCC(C(=O)Nc2cccc(C(=O)NCCCc3ccccc3)c2)C1 (configuration not stated),?,-12.0%,0.0%
CCCCN1C[C@H](c2ccc(Br)cc2)[C@@H](CC(=O)Nc2ccc(Br)cc2)C1=O,?,3.5%,35.2%[activator]
COC(=O)CCC(=O)OC1(C)C(=O)C2=CN(Cc3ccc4c(c3)OCO4)C(c3ccc(OC)cc3)=CC2=C(Br)C1=O (configuration not stated),-3.8%,2.8%,-19.7%
O=C(NCc1ccccc1)c1onc(CSc2ccc(F)cc2)c1C(=O)NCc1ccccc1,0.1%,14.0%,-8.8%
O=C(NCCCc1ccccc1)c1cccc(NC(=O)c2ccccc2)c1,?,-6.9%,-9.2%
CC(C)C(=O)Nc1cccc(COc2ccc(CN(CCc3ccccc3)C(=O)OC(C)(C)C)cc2)c1,?,26.0%,-8.2%
Cc1cccc(CN2CCN(C3CN(Cc4ccc([N+](=O)[O-])cc4)S(=O)(=O)C3)CC2)c1 (configuration not stated),?,-18.5%,-2.6%
O=C(NCCc1ccccc1)c1cccc(NC(=O)c2ccccc2)c1,?,-9.1%,33.8%[activator]
CCOC(=O)CN1C(=O)N[C@@H](CCc2ccccc2)C(C(=O)OC)=C1C,-23.0%&-23.0%[14.2 µM],-18.1%,-22.6%
CCN1C(=O)N[C@@H](c2ccc(Br)cc2)C(C(C)=O)=C1C,3.9%&3.9%[14.2 µM],-24.8%,4.4%
Cc1ccc([C@H]2C[C@H](n3cc(C4CC4)nn3)[C@@H](O)CN2Cc2cccs2)cc1,?,-28.1%,?
COCCN1C(=O)N[C@@H](c2cccc(C(F)(F)F)c2)[C@H](C(C)=O)[C@H]1C,-0.9%&-0.9%&-0.9%[14.2 µM],2.6%,-5.7%
COC(=O)C1=C(C)N(Cc2ccccc2)C(=O)N[C@H]1CCc1ccccc1,22.7%&22.7%[14.2 µM],1.5%,-12.0%
COc1ccc([C@H]2C[C@H](n3cc(-c4ccc(F)cc4)nn3)[C@@H](O)CN2CC2CCCCC2)cc1,?,-2.7%,?
CC(C)C1C(=O)N(Cc2cn(Cc3ccco3)nn2)CCS(=O)(=O)N1Cc1ccc(-c2ccc(F)cc2)cc1 (configuration not stated),?,2.3%,-8.3%

# 2 of the compounds above, with values under each structure.
# Values run as follows: MARV entry inh, RE007 growth inh, 2A StopGo
- O=C(NCCc1ccccc1)c1cccc(NC(=O)c2ccccc2)c1
    ?, -9.1%, 33.8%[activator]
- CCOC(=O)CN1C(=O)N[C@@H](CCc2ccccc2)C(C(=O)OC)=C1C
    -23.0%&-23.0%[14.2 µM], -18.1%, -22.6%

# Molecules above containing a carbonyl joined to an NH by a bond outside any ring (7):
SMILES,MARV entry inh,RE007 growth inh,2A StopGo
COc1cc2nc(N3CCN(C(=O)OCc4ccccc4)[C@H](C(=O)NC(C)(C)C)C3)nc(N)c2cc1OC,?,-3.7%,-14.9%
CC(C)(C)OC(=O)N1CCCC(C(=O)Nc2cccc(C(=O)NCCCc3ccccc3)c2)C1 (configuration not stated),?,-12.0%,0.0%
CCCCN1C[C@H](c2ccc(Br)cc2)[C@@H](CC(=O)Nc2ccc(Br)cc2)C1=O,?,3.5%,35.2%[activator]
O=C(NCc1ccccc1)c1onc(CSc2ccc(F)cc2)c1C(=O)NCc1ccccc1,0.1%,14.0%,-8.8%
O=C(NCCCc1ccccc1)c1cccc(NC(=O)c2ccccc2)c1,?,-6.9%,-9.2%
CC(C)C(=O)Nc1cccc(COc2ccc(CN(CCc3ccccc3)C(=O)OC(C)(C)C)cc2)c1,?,26.0%,-8.2%
O=C(NCCc1ccccc1)c1cccc(NC(=O)c2ccccc2)c1,?,-9.1%,33.8%[activator]

# This is a subset, so the mix of outcomes need not match the whole.
